AmpC inh no det – inhibitors of E. coli AmpC beta-lactamase without detergent; P00811; AmpC nitrocefin hydrolysis, absorbance 480 nm, no detergent; potencies from a single point are estimates; Potency, µM (titrated, usually from 28.7 µM), for inactives: at the top dose activity change, negative = inhibition; hit rate 1.8% among 71,000; AID 585; active = falling curve, for most hits resting on a single point; inconclusive = weak or doubtful change; inactive = flat or rising curve; further: % of control where 0% means no effect; about half of the hits show no inhibition at the top dose; a quarter of the inactives give rising signals
Target sequence (P00811 whole entry, looked up): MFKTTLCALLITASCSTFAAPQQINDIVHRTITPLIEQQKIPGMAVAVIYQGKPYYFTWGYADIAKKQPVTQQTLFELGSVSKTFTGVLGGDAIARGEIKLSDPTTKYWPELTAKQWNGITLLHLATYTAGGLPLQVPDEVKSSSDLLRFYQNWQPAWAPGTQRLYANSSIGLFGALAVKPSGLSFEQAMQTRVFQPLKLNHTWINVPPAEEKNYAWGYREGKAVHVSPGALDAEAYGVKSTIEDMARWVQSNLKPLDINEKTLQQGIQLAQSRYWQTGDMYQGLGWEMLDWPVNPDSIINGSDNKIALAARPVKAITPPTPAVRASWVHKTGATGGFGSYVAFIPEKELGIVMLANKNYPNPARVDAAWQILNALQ
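AmpC in 20 mM phosphate buffer pH 7.0 was preincubated 15 min at room temperature with compounds. Nitrocefin (800 uM stock) was then added and hydrolysis followed at 480 nm every 20 s for 4 min.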
Active calls of the source: *; ? = inconclusive; [ ] = remark or other dose. Potency means the concentration at half of the fitted maximal effect. A portion of the library (hit frequency here may not be typical).

SMILES	AmpC inh no det
Cc1cc(NC(=O)CSc2nc(-c3ccccc3)c(C#N)c(=O)[nH]2)no1	-9%
Cc1[nH]c(C)c2c(=O)n(-c3ccccc3)ncc12	-4%
Cc1nccn1CCC(=O)O	-3%
CCN(CC)C(=O)CSc1nc2ccccc2c(=O)n1-c1cccc(OC)c1	72%
O=C(NCc1ccco1)c1cc2n(n1)C(C(F)(F)F)CC(c1ccc(Cl)c(Cl)c1)N2 (stereo not drawn)	15%
O=C(CSc1nc2ccccc2c(=O)n1Cc1ccco1)N1CCN(c2ccccc2)CC1	14%
O=C(Cc1ccccc1)Nc1nnc(-c2ccco2)s1	?
CCn1c(=O)c(C(=O)NCCCO)c(O)c2ccccc21	62%
CC(=O)c1cccc(NC(=O)N2C3CCC2CC(O)(c2cccnc2)C3)c1 (stereo not drawn)	-9%
CCC(NC(=O)c1ccccc1NC(=O)c1ccccc1)C(=O)O (stereo not drawn)	-9%
CC(C)(C)c1cc(NS(=O)(=O)c2ccc3c(c2)OCCO3)on1	-4%
O=C(O)C1C(C(=O)O)C2(Cl)C(Cl)=C(Cl)C1(Cl)C2(Cl)Cl (stereo not drawn)	-5%
CC(C)NC(=O)N1CCCC2(CCN(C(=O)Oc3ccccc3)CC2)C1	38%
Cc1ccc(N=Nc2ccc(N)cc2C)c(S(N)(=O)=O)c1	-7%[5.75 µM]
COc1ccccc1NC(=O)Cn1c(=O)oc2ccccc21	0%
O=C(CCN1CCC(c2ccccc2)C1)c1cccs1 (stereo not drawn)	-20%
CCN(CC)C(c1ccc(C)cc1)c1nnnn1C1CCCCC1 (stereo not drawn)	34%
CCOc1cc(C(=O)Nc2ccc(S(=O)(=O)N3CCOCC3)cc2)cc(OCC)c1OCC	15%
CCOc1ccccc1CN1CCN(S(C)(=O)=O)CC1	22%
Nc1nc(OCC(F)(F)F)cc(Oc2ccccc2F)n1	13%
COc1ccc(N2C(=O)CC(NCc3ccncc3)C2=O)cc1 (stereo not drawn)	4%
CCS(=O)(=O)c1ccc(S(=O)(=O)CC)s1	0%
O=C(O)C1CCCN(S(=O)(=O)c2ccc(F)cc2)C1 (stereo not drawn)	-4%
Cc1ccc(C2C(=O)N(C3CCCC3)CC(=O)N2CC2COc3ccccc3O2)cc1 (stereo not drawn)	55%
Cc1cccc(OCc2nnc(SCC(=O)c3ccccc3)o2)c1	-1%

Looked up above:
AmpC inh no det, `Cc1ccc(C2C(=O)N(C3CCCC3)CC(=O)N2CC2COc3ccccc3O2)cc1` (stereo not drawn) = 55%
AmpC inh no det, `CC(C)(C)c1cc(NS(=O)(=O)c2ccc3c(c2)OCCO3)on1` = -4%
AmpC inh no det, `Cc1cc(NC(=O)CSc2nc(-c3ccccc3)c(C#N)c(=O)[nH]2)no1` = -9%

Other structures follow:
SMILES	AmpC inh no det
CN1CCN(S(=O)(=O)c2ccc(N)cc2)CC1	-12%
CCOC(=O)c1oc2cc(O)ccc2c(=O)c1-c1csc(C)n1	-4%
Cc1cc(C(=O)OCCO)c(C#N)c(N)n1	-6%
COc1cccc(NC(=O)c2ccc(S(=O)(=O)N3CCCCC3)cc2)c1	-3%
C=Cn1ccnc1P(=S)(c1cc(N(CC)CC)ns1)c1nccn1C=C	139%
CC(=N/O)/C(=N\O)c1ccc(C)o1	-15%
C[C@H](CCC(=O)O)[C@H]1CC[C@@H]2[C@@H]3CC[C@H]4C[C@@H](O)CC[C@@]4(C)[C@@H]3C[C@H](O)[C@@]21C	24%[5.75 µM]
O=S(=O)(NC1CC1)c1ccc(S(=O)(=O)N2CCCc3ccccc32)cc1	-13%
C=CCn1c(SCCN2CCOCC2)nc2c1c(=O)[nH]c(=O)n2C	-5%
Cc1cccc(-n2ncc(C#N)c2N)c1	-5%
CCOc1ccc(CNC(=O)CCn2c(=O)oc3ccccc32)cc1	6%
CCNC(=O)[C@H]1O[C@H](n2cnc3c(N)nc(NCCc4ccc(CCC(=O)O)cc4)nc32)[C@@H](O)[C@@H]1O	12%
O=C(CSc1nnc(CNC(=O)c2c(F)cccc2Cl)o1)Nc1ccc2c(c1)OCCO2	1%
Cc1nc(C)c2c(=O)cc(-c3ccccc3)[nH]c2n1	-5%
Cc1c(C(=O)NCc2ccccn2)oc2ccc(S(=O)(=O)N3CCOCC3)cc12	39%
COc1ccc(CNC(=O)C(C)N(Cc2ccco2)C(=O)c2snc(C(N)=O)c2N)cc1 (stereo not drawn)	3%
Cn1c2ccc(F)cc2c2ncn(CCN3CCOCC3)c(=O)c21	22%
COC(=O)[C@@]1(Cc2ccc(OC)cc2)[C@H]2c3cc(C(=O)N(C)C)n(Cc4nc5ccccc5[nH]4)c3C[C@H]2CN1C(=O)c1ccccc1	151%
CCOCCCNC(=O)Cc1ccc(OC)c(OC)c1	25%
CC1(C)Cc2ccccc2-c2nnc(-c3ccc(O)cc3)n21	1%
COC(=O)c1ccc(COc2ccc(-c3nn[nH]n3)cc2)cc1	-21%
CC1=C(C(N)=O)C(c2ccc(C)o2)C(C(N)=O)=C(C)N1	55%
Cn1ccnc1C(O)c1cc(C(C)(C)C)c(O)c(C(C)(C)C)c1 (stereo not drawn)	13%
C=CCn1c(COc2ccccc2)nnc1SCC(=O)O	2%
COc1ccc(C(=O)NCC(c2cccnc2)N2CCN(c3ccccc3)CC2)cc1OC (stereo not drawn)	98%

Later entries
SMILES	AmpC inh no det
Cc1nn(C(=O)c2ccoc2C)c(N)c1-c1ccccc1	10%
CCOC(=O)C1=C(C)NC2=C(C(=O)CC(C)(C)C2)C1c1ccc(N(C)C)cc1 (stereo not drawn)	50%
Cc1cc(NC(=O)CSc2ncn(-c3ccccc3)n2)no1	-6%
Cc1ccc(S(=O)(=O)NC2OC(=O)C(Cl)=C2Cl)cc1 (stereo not drawn)	-4%
Cc1ccc(CN2CC34C=CC(O3)C(C(=O)NCc3ccc5c(c3)OCO5)C4C2=O)cc1 (stereo not drawn)	77%
Cn1c(=O)c2c(nc(SCCNS(=O)(=O)c3ccccc3)n2C)n(C)c1=O	16%
Cc1cc(N2C(=O)c3ccc(C(=O)NCc4ccccc4)cc3C2=O)no1	-11%
O=C(NC1CCCCCCC1)c1ccc2c(c1)OCO2	-4%
COc1ccc(N(C)C(=O)c2ccc3snnc3c2)cc1	4µM*[single pt active]
Cc1nn(Cc2ccc(C(=O)N3c4ccc(F)cc4CCC3C)o2)c(C)c1Br (stereo not drawn)	126%
CN1CCN(c2ncc3nc(-c4cc(F)cc(F)c4)c(=O)n(-c4ccccc4)c3n2)CC1	156%
Cc1c(Cl)cccc1NC(=O)CSCC(N)=O	7%
CC(=O)N1CCN(C(=O)CCc2nc3sc4c(c3c(=O)[nH]2)CCCC4)CC1	43%
O=C1N(CC(=O)N2CCc3ccccc32)CCN1Cc1ccc(Cl)cc1	53%
Cc1cc(C(=O)N2CCN(c3ncccn3)CC2)sc1-c1ccccc1	56%
Nc1ccc(N=Nc2ccccc2)c(N)n1	-22%
CN(Cc1ccco1)C(=O)Cn1c(=O)oc2cc(S(=O)(=O)NCc3ccccc3)ccc21	9%
COc1cc(OC)c(OC)cc1CNC(C)C(O)c1ccccc1 (stereo not drawn)	-11%
O=C(c1ccc(N2C(=O)CCC2=O)cc1)N1CCOCC1	14%
COc1cc(NS(=O)(=O)c2ccc(OC)c(C)c2C)c(OC)cc1Cl	10%
COc1ccc(C(CNC(=O)c2ccc(S(=O)(=O)N3CCOCC3)cc2)N2CCCCC2)cc1 (stereo not drawn)	47%
COC(=O)C(Cc1ccccc1)NC(=O)CSc1nc(C)cc(=O)[nH]1 (stereo not drawn)	-3%
COc1cccc(NS(=O)(=O)c2ccc3[nH]cc(C(=O)NC4CC4)c(=O)c3c2)c1	-10%
O=C1CC(c2ccco2)CC2=C1C(c1ccccc1)n1nc(C(F)(F)F)nc1N2 (stereo not drawn)	-11%
Cc1onc(-c2c(F)cccc2Cl)c1C(=O)N1CCN(S(C)(=O)=O)CC1	1%

Fetched one by one from above:
SMILES	AmpC inh no det
CN(Cc1ccco1)C(=O)Cn1c(=O)oc2cc(S(=O)(=O)NCc3ccccc3)ccc21	9%
Nc1ccc(N=Nc2ccccc2)c(N)n1	-22%
Cc1onc(-c2c(F)cccc2Cl)c1C(=O)N1CCN(S(C)(=O)=O)CC1	1%
CC(=O)N1CCN(C(=O)CCc2nc3sc4c(c3c(=O)[nH]2)CCCC4)CC1	43%
Cc1nn(Cc2ccc(C(=O)N3c4ccc(F)cc4CCC3C)o2)c(C)c1Br (stereo not drawn)	126%
CCOC(=O)C1=C(C)NC2=C(C(=O)CC(C)(C)C2)C1c1ccc(N(C)C)cc1 (stereo not drawn)	50%

(more compounds)
SMILES	AmpC inh no det
COc1cc(NS(=O)(=O)c2ccc(N)cc2)ncn1	-4%[12.8 µM]
Cc1ccc(-c2cc(C(=O)NCc3ccco3)c3ccccc3n2)o1	23%
CCOC(=O)C(C)Sc1ncnc2nc[nH]c12 (stereo not drawn)	-3%
CC[C@@H](CS(=O)(=O)O)[N+](=O)[O-]	-8%[5.75 µM]
Cn1c(SC/C=C/c2ccccc2)nnc1-c1cccs1	0%
O=C(CSc1nnc(CNc2ccccc2)o1)N1CCc2ccccc21	16µM*[single pt active]
CN1CCc2c(sc(/N=C/c3cccs3)c2C(N)=O)C1	13%
CC1(C)CC2CC(C)(CN2S(=O)(=O)c2ccc(N)cc2)C1 (stereo not drawn)	-10%
O=C(C(NS(=O)(=O)c1cccc2nsnc12)c1ccccc1)N1CCN(c2ccccn2)CC1 (stereo not drawn)	32%
[N-]=[N+]=CC(=O)C(Cc1ccccc1)N1C(=O)c2ccccc2C1=O (stereo not drawn)	0%
CCOc1cccc(-n2nnnc2-c2ccc(OC)cc2)c1	1%
O=C(Nc1ccc(Cl)cc1)OCCn1nnnc1C(c1ccccc1)N1CCOCC1 (stereo not drawn)	74%
Nc1nc(CN2CCN(c3ccccc3F)CC2)nc(Nc2ccccc2)n1	18%
O=C(O)Cn1ncc2c1-c1ccoc1CC2	3%
CCCCCCCC/C=C\CCCCCCCC(=O)NCCc1ccc(O)c(O)c1	10µM*
CCOC(=O)N1CCC(NC(=O)Cn2ncc3c2-c2cc(C)ccc2OC3)CC1	47%
Cc1cc(C)n(-c2ccc(F)cc2)c(=O)c1C(=O)O	0%
NS(=O)(=O)c1ccc(-c2ccc([As](=O)(O)O)cc2)cc1	-4%[5.75 µM]
Oc1ccc(Br)cc1/C=N/n1cnc2ccccc21	16µM*[single pt active]
Cc1ccc(-c2nc(C#N)c(NCCN3CCCCC3)o2)cc1	18%
Cn1c(=O)[nH]c(=O)c2c1nc(Br)n2CCCSc1nc2ccccc2o1	54%
CCCN1C(=O)c2ccc(C(=O)NC3CCCCC3)cc2C1=O	-4%
CNC(=O)CCc1nc(-c2ccc(C(C)(C)C)cc2)no1	78%
Cc1cc(-c2ccccc2)nc(SCc2ccc(C(=O)O)o2)n1	-13%
Nc1ncnc2c1ncn2[C@@H]1O[C@@H](C(=O)NC2CC2)[C@H](O)[C@@H]1O	-6%

The listing continues:
SMILES	AmpC inh no det
COc1ccc(OC)c(NC(=O)C2CCCNC2=O)c1 (stereo not drawn)	10%
Clc1ccc(-c2nn3cnnc3s2)c(Cl)c1	-2%
CC(=O)C(Sc1ccc2nnc(-c3ccc(F)cc3)n2n1)C(C)=O	39%
Cc1ccc(-n2c3c(cc(C(=O)N4CCN(C)CC4)c2=O)C(=O)CC(C)(C)C3)cc1	3%
COc1cc(C(=O)CSc2nncn2C)cc(OC)c1OC	2%
COc1ccc(CNC(=O)c2cccc3c2C(=O)N(Cc2cccnc2)C3)cc1	80%
Cc1cc2oc(=O)cc(CN3CCCCC3)c2cc1C(C)C	30%
CCOC(=O)Cn1c(=O)oc2cc(S(=O)(=O)NCC3CCCO3)ccc21 (stereo not drawn)	10%
Cc1nc2ccc(S(=O)(=O)NC(C(=O)N3CCC(C)CC3)C(C)C)cc2s1 (stereo not drawn)	4µM*[single pt active]
O=C(O)CCC(O)=C1S(=O)(=O)OCCOS1(=O)=O	4%[5.75 µM]
CCOc1cc(CN2CCCCC2)ccc1OC	-6%
CCOc1ccccc1Nc1nc(N)nc(CSc2nccc(C)n2)n1	32%
CCCCOC(=O)n1c(=O)oc2ccccc21	4%
Cc1ccc(OCC(=O)NCCN2CCN(C(=O)COc3ccc(C)cc3)CC2)cc1	142%
O=C(Cn1nnc(-c2ccncc2)n1)NCCc1ccccc1	4%
Cc1cccc(N2C(N)=NC(N)=NC23CCCCC3)c1	-18%
O=C(O)c1ccc(N2C(=O)C3ON(c4ccccc4)C(c4ccccc4F)C3C2=O)cc1 (stereo not drawn)	-15%
COc1ccccc1NC(=O)Cn1cnc2c(oc3ccccc32)c1=O	14%
Cc1ccc2c(c1)nnn2C1CCN(CC(=O)c2ccc(Cl)cc2)CC1	34%
c1ccc(Oc2nc(Oc3ccccc3)nc(N3CCOCC3)n2)cc1	51%
O=C(Nc1nccs1)C1CCCN1S(=O)(=O)c1cccc2cccnc12 (stereo not drawn)	4%
CCOCCCNC(=O)C(Cc1ccccc1)NC(=O)c1ccco1 (stereo not drawn)	14%
COc1ccc(N2CCN(C(=O)c3ccc(N4C(=O)NC5CC4(C)Oc4ccccc45)cc3)CC2)cc1 (stereo not drawn)	123%
CC1=C(C(=O)N2CCCCC2)C(c2cccs2)NC(=O)N1 (stereo not drawn)	-5%
C=CCNc1ncnc2ccccc12	-10%
COC(=O)Cn1cc(C(=O)C2CC2)c2ccccc21	-4%
COC(=O)c1ccc2c(c1)C(=O)N(C1CCCCC1)C2=O	2%
CCOC(=O)/C=C1\CC(=O)Nc2cc(C)c(C)cc2N1	24%

In another format: results already given.
Structure: CCOc1ccccc1Nc1nc(N)nc(CSc2nccc(C)n2)n1
  AmpC inh no det: 32%
Structure: CCCCOC(=O)n1c(=O)oc2ccccc21
  AmpC inh no det: 4%
Structure: Cc1ccc(OCC(=O)NCCN2CCN(C(=O)COc3ccc(C)cc3)CC2)cc1
  AmpC inh no det: 142%
